# LEDGF integ inh: blocks HIV-1 LEDGF/p75-dependent DNA integration | TR-FRET IN-LEDGF/p75 DNA integration, Eu/Cy5 | inhibition, % at 3.7 µM | hit rate 0.64% among 370,000 | AID 743269;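 active = inhibition above the screen-wide mean plus 3 SD, cut at about 13% in these data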;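 note: signal is the Cy5 over europium emission ratio at 671 and 618 nm; 0% = plate median of compound wells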
# SIAE inh: blocks human sialic acid acetylesterase | Q9HAT2 | SIAE FP-Rh probe binding, fluorescence polarization | inhibition, % at 9.66 µM | hit rate 0.69% among 370,000 | AID 1053197;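 active = inhibition above a cutoff: mean of compounds within the control limits plus 3 SD of those, cut at about 17% in these data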;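 note: 0% = plate median of compound wells and 100% = probe without SIAE protein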
# PRMT1 inh: inhibitors of human PRMT1. Q99873. recombinant PRMT1, activity-based probe fluorescence polarization. inhibition, % at 2.79 µM. hit rate 1.3% among 370,000. AID 652257;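 active = inhibition above about 21% made by adding two undisclosed values, limit read from the data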
# NR1D1 modulator: modulates human Rev-erb alpha binding to DNA; P20393; Rev-erbα–FITC-DNA binding, fluorescence polarization, 90 min; activity, % at 10 µM; hit rate 0.79% among 370,000;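 active = activity above about 14%, limit read from the data; passing the limit was not always enough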;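 note: 0% = DMSO wells with 35 nM protein and 100% = DMSO wells with 750 nM protein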
# Target sequence (P20393 whole entry, looked up): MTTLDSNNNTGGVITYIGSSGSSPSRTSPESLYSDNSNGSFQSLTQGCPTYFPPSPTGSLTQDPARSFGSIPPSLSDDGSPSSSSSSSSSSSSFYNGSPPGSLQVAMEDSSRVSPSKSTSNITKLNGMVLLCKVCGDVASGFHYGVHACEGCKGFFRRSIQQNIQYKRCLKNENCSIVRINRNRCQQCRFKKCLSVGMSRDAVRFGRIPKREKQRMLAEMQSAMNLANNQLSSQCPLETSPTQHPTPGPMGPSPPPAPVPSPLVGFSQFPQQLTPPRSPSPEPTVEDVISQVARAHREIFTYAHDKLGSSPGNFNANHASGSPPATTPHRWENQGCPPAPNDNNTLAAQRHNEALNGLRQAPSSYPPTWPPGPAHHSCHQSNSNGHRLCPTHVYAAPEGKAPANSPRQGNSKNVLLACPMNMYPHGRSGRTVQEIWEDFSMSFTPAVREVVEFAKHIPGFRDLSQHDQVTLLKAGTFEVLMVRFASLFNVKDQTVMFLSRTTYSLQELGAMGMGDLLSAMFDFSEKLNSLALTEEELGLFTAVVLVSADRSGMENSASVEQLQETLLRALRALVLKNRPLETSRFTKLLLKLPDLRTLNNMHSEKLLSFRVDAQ
# rCAG binder: binds r(CAG) RNA repeats; r(CAG) RNA repeat, TO-PRO-1 dye displacement fluorescence; hit rate 1.3% among 370,000; inhibition, % at 3 µM;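 active = inhibition above the plate cutoff, the mean of all test compounds on that plate plus 3 SD, cut at about 35% in these data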;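 note: 0% = DMSO alone and 100% = 100 µM mitoxantrone as full dye displacement; higher means more dye released from RNA so lower well fluorescence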
# PG9 binder: binds the HIV-1 gp120 antibody PG9 | inhibition, % at 6.7 µM | hit rate 0.43% among 360,000 | TR-FRET gp120-PG9 antibody binding; in the data active = inhibition above about 8.5%
# ABHD4 inh: inhibits mouse alpha/beta hydrolase domain 4; inhibition, % at 8.92 µM; hit rate 0.54% among 370,000; purified mABHD4, FP-Rh probe fluorescence polarization; AID 720543; Q8VD66;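 active = inhibition exceeding the mean over every tested compound plus 3 SD, cut at about 30% in these data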;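 note: 0% = plate median of compound wells and 100% = S159A mutant with DMSO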
#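 Assay system: mABHD4 protein; medium: HEPES pH 7.0, NaCl, Pluronic buffer; dosing: 8.92 µM, single dose; schedule: 45 min + 60 min at 25 °C; signal: FP readout, ex 525 nm / em 598 nm; read-out: normalized percent inhibition of probe labeling; repeats: single replicate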
# TCR-CD3 inh: blocks the human TCR-CD3 interaction | hit rate 0.37% among 360,000 | inhibition, % at 9.4 µM | TAMRA-labeled TCR probe fluorescence, biochemical; in the data active = inhibition above about 19%;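 note: recombinant mutant TCR 2C K166C tagged with TAMRA read by polarization; 0% = receptor in buffer alone and 100% = receptor with positive control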
# TDP2 absorb: TDP2 (human) inhibition, absorbance primary screen; recombinant TDP2, T5PNP hydrolysis, p-nitrophenol absorbance 415 nm; inhibition, % at 12.8 µM; hit rate 0.34% among 370,000;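 active = inhibition above the mean of all tested compounds plus 3 SD, set per campaign, cut at about 25% in these data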;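 note: 0% = DMSO with enzyme and 100% = buffer with substrate but no TDP2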
#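 System: recombinant human TDP2 / Amount: 120 nM TDP2 per well / Also added: 5 mM T5PNP chromogenic substrate / Doses: 12.8 µM single point, 1% DMSO / Incubation: 2 h at 37 °C / Detection: p-Nitrophenol epi absorbance / Evaluation: % inhibition relative to enzyme-containing and enzyme-free wells / Repeats: singlicate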
# Numbers without * were called inactive. An excerpt; count on the stated rates, not on these rows.
SMILES,LEDGF integ inh,SIAE inh,PRMT1 inh,NR1D1 modulator,rCAG binder,PG9 binder,ABHD4 inh,TCR-CD3 inh,TDP2 absorb
Cc1oc2c(F)c(F)c(F)c(F)c2c1S(=O)(=O)Nc1cccc(C(F)(F)F)c1,4,-6,5,-4,54*,-3.5,-51,6,2
O=C(Nc1nc(-c2cccnc2)cs1)c1ccc(S(=O)(=O)N2CCOCC2)cc1,6,-5,0,8,5,-1.7,-10,-5,-17
COc1ccc(CNc2nc(-c3cccnc3)nn2C(=O)c2ccco2)cc1,1,-6,2,-1,-5,1.3,3,-4,5
CCN(CC)S(=O)(=O)c1cc(C(=O)n2cccn2)c(Cl)cc1Cl,-1,1,1,-1,1,0.3,6,1,-11
O=C(Nc1cccn(Cc2ccccc2Cl)c1=O)NC1CCCCC1,-1,0,4,0,-6,-0.1,3,1,5
Nc1cc(OC(=O)c2cccs2)nn1S(=O)(=O)c1ccc(F)cc1,0,14,0,7,5,-0.3,7,-2,9
CC(=O)Nc1ccc(NC(=O)c2ccc(-c3ccc([N+](=O)[O-])cc3)o2)cc1,1,-8,9,-23,2,1.8,-6,-9,-5
CC(O)c1nc2ccccc2n1CCCc1ccccc1 (centres undefined),-4,4,-3,3,-4,-1.5,3,8,-7
CC(=O)N1CCN(CC(C)(C)NS(=O)(=O)c2ccc(C)cc2)CC1,-1,4,1,1,-3,3.1,-6,-1,13
O=C(Nc1ccccc1)C1=C(O)CC(c2ccco2)CC1=Nc1ccccc1 (centres undefined),3,-1,11,-5,7,0.1,4,-7,3
COc1ccc(CC(=O)O/N=C(\N)Cc2cccc3ccccc23)cc1,14*,1,2,1,-3,-2.2,-7,-3,0
O=C(NC1CCC(O)CC1)c1cc(Cl)c2c(c1)OCCO2 (centres undefined),-4,1,2,-2,2,-0.2,2,-4,-4
Cc1cc(C)c2c(CN3CCN(Cc4ccc5c(c4)OCO5)CC3)cc(=O)oc2c1,0,-9,-2,3,-7,-0.1,2,4,1
C=C1c2c(Cl)ccc(O)c2C(O)=C2C(=O)[C@]3(O)C(O)=C(C(N)=O)C(=O)[C@@H](N(C)C)[C@@H]3[C@@H](O)C12 (some centres undefined),68*,17,45*,-38,87*,-0.7,70*,33*,-5
COC(=O)C(C)NC(=O)C(C)NC(=O)OCc1ccccc1 (centres undefined),-3,11,1,-1,-2,-1.6,4,4,1
CCCCn1c(C)cc2cc(O)ccc21,-3,13,3,-2,5,-0.9,31*,1,-1
Cc1c(C)c2ccc(OC(C)C(=O)N3C[C@H]4C[C@@H](C3)c3cccc(=O)n3C4)c(C)c2oc1=O (some centres undefined),1,2,2,-1,1,1.2,0,-9,-10
O=C(OCc1nnc(-c2ccccc2)o1)c1ccc([N+](=O)[O-])s1,7,-2,0,0,4,-0.3,5,-1,32*
CC1CC(C(F)F)n2nc(C(=O)Nc3sc4c(c3C#N)CCC(C(C)(C)C)C4)nc2N1 (centres undefined),1,0,-3,13,-2,-0.9,-1,-1,-8
COc1ccc(/C=C/C(=O)OCC(=O)c2ccc3c(c2)NC(=O)CO3)c(OC)c1,-2,-10,2,-3,3,1.0,2,-6,-8
N#CCCN(CCC#N)C(=O)c1ccc2c(c1)OCO2,-1,2,-2,6,4,-0.5,-4,-3,1
COc1ccc(/C=C2/Sc3ccc(C(=O)N4CCOCC4)cc3NC2=O)cc1OC,3,-4,-2,9,-1,-1.0,0,2,-4
O=C(N[C@@H](Cc1ccccc1)C(=O)OCc1ccccc1)c1nc[nH]c1C(=O)NC1CCNCC1,1,9,-1,1,4,-0.1,-6,-9,-4
CC(C)(CN1CCCC1)NS(=O)(=O)c1ccccc1,-5,-7,6,0,2,-2.0,4,0,-13

# Some of the entries above, reformatted.
Compound	LEDGF integ inh	SIAE inh	PRMT1 inh	NR1D1 modulator	rCAG binder	PG9 binder	ABHD4 inh	TCR-CD3 inh	TDP2 absorb
COc1ccc(/C=C2/Sc3ccc(C(=O)N4CCOCC4)cc3NC2=O)cc1OC	3	-4	-2	9	-1	-1.0	0	2	-4
Cc1cc(C)c2c(CN3CCN(Cc4ccc5c(c4)OCO5)CC3)cc(=O)oc2c1	0	-9	-2	3	-7	-0.1	2	4	1

# Next section.
SMILES,LEDGF integ inh,SIAE inh,PRMT1 inh,NR1D1 modulator,rCAG binder,PG9 binder,ABHD4 inh,TCR-CD3 inh,TDP2 absorb
O=C(O)CCC(=O)NNc1ccccc1[N+](=O)[O-],2,4,1,-3,-1,-0.1,5,5,-2
CC(=O)NCCNC(=O)c1ccc(Sc2ccccc2)c([N+](=O)[O-])c1,-5,-4,-1,8,1,-1.0,7,3,-8
COc1ccc(-c2sc3cc4c(cc3c2C#Cc2ccc(N)cc2)OCO4)cc1,-2,12,1,2,31,1.6,7,-12,9
CCOc1ccc(N2CC(C(=O)N3CCN(C(=O)c4ccco4)CC3)CC2=O)cc1 (centres undefined),2,15,1,-3,-2,0.3,-2,-4,26*
O=C(NNC(=O)c1ccccc1-n1cccc1)c1ccc(Cl)cc1Cl,5,-9,-2,-5,6,-0.4,-10,0,-2
CC(C)(C)OC(=O)NN1CC(=O)N2[C@@H](Cc3c([nH]c4ccccc34)C2(C)C)C1=O,-2,-2,1,-2,-1,-1.7,6,-4,-9

# Structural class: the compounds so far containing sulfur
SMILES,LEDGF integ inh,SIAE inh,PRMT1 inh,NR1D1 modulator,rCAG binder,PG9 binder,ABHD4 inh,TCR-CD3 inh,TDP2 absorb
Cc1oc2c(F)c(F)c(F)c(F)c2c1S(=O)(=O)Nc1cccc(C(F)(F)F)c1,4,-6,5,-4,54*,-3.5,-51,6,2
O=C(Nc1nc(-c2cccnc2)cs1)c1ccc(S(=O)(=O)N2CCOCC2)cc1,6,-5,0,8,5,-1.7,-10,-5,-17
CCN(CC)S(=O)(=O)c1cc(C(=O)n2cccn2)c(Cl)cc1Cl,-1,1,1,-1,1,0.3,6,1,-11
Nc1cc(OC(=O)c2cccs2)nn1S(=O)(=O)c1ccc(F)cc1,0,14,0,7,5,-0.3,7,-2,9
CC(=O)N1CCN(CC(C)(C)NS(=O)(=O)c2ccc(C)cc2)CC1,-1,4,1,1,-3,3.1,-6,-1,13
O=C(OCc1nnc(-c2ccccc2)o1)c1ccc([N+](=O)[O-])s1,7,-2,0,0,4,-0.3,5,-1,32*
CC1CC(C(F)F)n2nc(C(=O)Nc3sc4c(c3C#N)CCC(C(C)(C)C)C4)nc2N1 (centres undefined),1,0,-3,13,-2,-0.9,-1,-1,-8
COc1ccc(/C=C2/Sc3ccc(C(=O)N4CCOCC4)cc3NC2=O)cc1OC,3,-4,-2,9,-1,-1.0,0,2,-4
CC(C)(CN1CCCC1)NS(=O)(=O)c1ccccc1,-5,-7,6,0,2,-2.0,4,0,-13
CC(=O)NCCNC(=O)c1ccc(Sc2ccccc2)c([N+](=O)[O-])c1,-5,-4,-1,8,1,-1.0,7,3,-8
COc1ccc(-c2sc3cc4c(cc3c2C#Cc2ccc(N)cc2)OCO4)cc1,-2,12,1,2,31,1.6,7,-12,9
